Screening data as filed in PubChem.
NPYLR7 agonist – mosquito NPYLR7 agonism; activation, % at 10 µM; AID 1259423; actives 0.15% (n = 270,000); HEK293T NPYLR7/Galpha15, GCaMP6s calcium fluorescence; in the data active = activation above about 40%;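 note: 0% = vehicle and 100% = reference agonist at the receptor; some compounds past the cut are filed as inactive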
NPYLR7 agonist max-min – recorded beside NPYLR7 agonist, whose call it bears; activation, %; measured here: Max-Min RFU normalised activation; some inactives read as strong as hits;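 span of the calcium signal over five minutes; 0% = vehicle and 100% = native peptide agonist; compound fluorescence can raise it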
Numbers without * were called inactive; & = joins results of further samples.

1. CCc1c(C(=O)NCc2cccnc2)c(C2CC2)nn1-c1ccccc1C
  NPYLR7 agonist = 8; NPYLR7 agonist max-min = 18
2. CC(C)(O)CN1C[C@H]2COc3ccccc3[C@H]2N(C(=O)c2cccs2)CCC1=O
  NPYLR7 agonist = 18; NPYLR7 agonist max-min = 20
3. O=C(CC1(C(=O)O)CCCCC1)Nc1ccc(F)c(F)c1F
  NPYLR7 agonist = 9; NPYLR7 agonist max-min = 14
4. O=C(CN(CCCN1CCOCC1)S(=O)(=O)c1ccc(F)cc1)N(Cc1ccccc1)Cc1ccco1
  NPYLR7 agonist = -5; NPYLR7 agonist max-min = -3
5. COc1cccc(N=Nc2c(-c3ccccc3)[nH]n(-c3ccccc3)c2=O)c1
  NPYLR7 agonist = -3; NPYLR7 agonist max-min = -6
6. O=C(c1ccc(=O)n(-c2ccccc2)n1)N1CCCC(c2ccn[nH]2)C1 (centres undefined)
  NPYLR7 agonist = -17; NPYLR7 agonist max-min = -17
7. COc1ccc2c(c1OCc1ccccc1)CN(C1CCCC1)C(=O)CCN2
  NPYLR7 agonist = 0; NPYLR7 agonist max-min = 2
8. CCn1c(SCc2cc(Cl)ccc2Cl)nnc1-c1c2c(nc3ccccc13)CCC2
  NPYLR7 agonist = -7; NPYLR7 agonist max-min = -9
9. CC(C)Cn1cncc1CNC1CCN(c2ccc3c(c2)OCO3)CC1
  NPYLR7 agonist = 11; NPYLR7 agonist max-min = 7
10. Cc1cccn2c(=O)c(C=C3SC(=S)N(C(C)C)C3=O)c(NCc3ccco3)nc12
  NPYLR7 agonist = 6; NPYLR7 agonist max-min = 3

Compound profiles (already shown). Values in the order: NPYLR7 agonist, NPYLR7 agonist max-min
Profile of COc1cccc(N=Nc2c(-c3ccccc3)[nH]n(-c3ccccc3)c2=O)c1 = -3, -6
Profile of CC(C)(O)CN1C[C@H]2COc3ccccc3[C@H]2N(C(=O)c2cccs2)CCC1=O = 18, 20

(further entries)
11. O=C(Nc1ccccc1OC1CCOC1)N1CC2CCCCC2C1 (centres undefined)
  NPYLR7 agonist = 9&-21; NPYLR7 agonist max-min = 3&-22
12. CCc1nc(CSC2CCN(C3CC3)C2=O)cs1 (centres undefined)
  NPYLR7 agonist = 4; NPYLR7 agonist max-min = 4
13. COc1c(F)ccc(-c2n[nH]c(Cc3ccccc3)n2)c1F
  NPYLR7 agonist = 27; NPYLR7 agonist max-min = 17
14. FC(F)Cn1ccc(Nc2ncc(Br)cn2)n1
  NPYLR7 agonist = 1&4; NPYLR7 agonist max-min = 0&5
15. CNC(=O)c1ccc2c(C(=Nc3cccc(CN(C)C)c3)c3ccccc3)c(O)[nH]c2c1
  NPYLR7 agonist = -2; NPYLR7 agonist max-min = -9
16. CN(C)S(=O)(=O)NCCOc1ccc(-c2ccccc2)nn1
  NPYLR7 agonist = -9; NPYLR7 agonist max-min = -14
17. Cc1ccc(Cn2ccn3nc(-c4ccc(C)c(C)c4)cc3c2=O)cc1
  NPYLR7 agonist = 3; NPYLR7 agonist max-min = 0
18. CCC(C)NC(=O)c1cc2c(=O)n3cccc(C)c3nc2s1 (centres undefined)
  NPYLR7 agonist = 5; NPYLR7 agonist max-min = -1
19. O=C(CCNc1ncc(C(F)(F)F)cc1Cl)Nc1cn[nH]c1
  NPYLR7 agonist = 8; NPYLR7 agonist max-min = 5
20. COc1ccc(Cc2nc(CN(C)Cc3cccc4ccccc34)cs2)cc1
  NPYLR7 agonist = 5; NPYLR7 agonist max-min = 3

21. CCC(=O)Nc1sc2c(c1C(=O)Nc1ccccc1)CCC(C)C2 (centres undefined)
  NPYLR7 agonist = 0; NPYLR7 agonist max-min = -1
22. CC(C)(C)C(=O)Cn1cnc([N+](=O)[O-])n1
  NPYLR7 agonist = 6; NPYLR7 agonist max-min = 3
23. Cc1cccc(C(C(=O)N(C)Cc2snnc2C)N(C)C)c1 (centres undefined)
  NPYLR7 agonist = 15; NPYLR7 agonist max-min = 12
24. CCOC(=O)CSc1ccc2nnc(-c3ccc(OCC)cc3)n2n1
  NPYLR7 agonist = 11; NPYLR7 agonist max-min = 8
25. O=C(NNC(=O)C1CC1)c1cc(Br)c(Br)s1
  NPYLR7 agonist = 0; NPYLR7 agonist max-min = -1
26. CC(C)CN(C(=O)c1ccco1)C1CCS(=O)(=O)C1 (centres undefined)
  NPYLR7 agonist = 1; NPYLR7 agonist max-min = 27
27. CCc1c(C(=O)N2CCN(CCO)CC2)cnn1-c1cccc(C)c1
  NPYLR7 agonist = 2; NPYLR7 agonist max-min = 2
28. O=C(Nc1ccccc1C(F)(F)F)c1cccn(OCc2cccc(Cl)c2)c1=O
  NPYLR7 agonist = 20; NPYLR7 agonist max-min = 20
29. O=C(Nc1ccc2nc([C@H]3C[C@H](O)[C@@H](CO)O3)[nH]c2c1)NC(c1ccccc1)c1ccccc1
  NPYLR7 agonist = -3; NPYLR7 agonist max-min = -9
30. c1ccc(CN(CCN2CCOCC2)Cc2ccco2)nc1
  NPYLR7 agonist = 11; NPYLR7 agonist max-min = 10

31. NC(=O)Cn1nc(C2CC2)c2cnn(-c3ccc(F)cc3)c2c1=O
  NPYLR7 agonist = 8; NPYLR7 agonist max-min = 5
32. O=C(Cn1cnc2ccccc2c1=O)Nc1ccccc1
  NPYLR7 agonist = -4; NPYLR7 agonist max-min = -8
33. CCN1CCN(C(c2cccc(Cl)c2)C2Sc3nc(C)nn3C2=O)CC1 (centres undefined)
  NPYLR7 agonist = 2; NPYLR7 agonist max-min = 0
34. CCc1nnsc1C(=O)Nc1c(C(=O)c2ccccc2)oc2ccccc12
  NPYLR7 agonist = 9; NPYLR7 agonist max-min = 4
35. O=c1[nH]c(=S)[nH]c2scc(-c3cccs3)c12
  NPYLR7 agonist = 9; NPYLR7 agonist max-min = 9
36. CC(NC(=O)COC(=O)C1=NNC(=O)CC1)C1CC2CCC1C2 (centres undefined)
  NPYLR7 agonist = 4; NPYLR7 agonist max-min = 9
37. CSCCC(=O)Nc1nc2ccccc2s1
  NPYLR7 agonist = 1; NPYLR7 agonist max-min = -2
38. CCOCCCNC(=O)c1cc(NC(=O)C23CC4CC(CC(C4)C2)C3)ccc1N1CCN(c2ccccc2OC)CC1
  NPYLR7 agonist = 10; NPYLR7 agonist max-min = 17
39. CN(CC(=O)Nc1ccc(Cl)cc1F)CC1CC(=O)N(C2CCCC2)C1 (centres undefined)
  NPYLR7 agonist = 5; NPYLR7 agonist max-min = -8
40. CC1=NC2=C(C(=O)CC(c3ccccc3)C2)C(c2ccccc2Cl)C1C(=O)OC1CCCC1 (centres undefined)
  NPYLR7 agonist = -7; NPYLR7 agonist max-min = -7

Along the list, as entered above:
NPYLR7 agonist for entries 31 to 40: 8, -4, 2, 9, 9, 4, 1, 10, 5, -7
NPYLR7 agonist max-min for entries 31 to 40: 5, -8, 0, 4, 9, 9, -2, 17, -8, -7

(listing goes on)
41. O=C1c2nc(-c3cccnc3)ccc2CN1C1(C(=O)N[C@H]2CCc3ccccc32)CC1
  NPYLR7 agonist = -14; NPYLR7 agonist max-min = -15
42. CC(C)(C)CC(=O)Nc1nnc(SCC(=O)c2ccccc2)s1
  NPYLR7 agonist = 18; NPYLR7 agonist max-min = 23
43. COc1ccc(C(=O)C=Cc2cc(Br)c(O)c(OC)c2)cc1F
  NPYLR7 agonist = 172*; NPYLR7 agonist max-min = 160*
44. O=c1c(-c2ccc(Br)cc2)coc2cc(OC3OC(CO)C(O)C(O)C3O)ccc12 (centres undefined)
  NPYLR7 agonist = -6; NPYLR7 agonist max-min = -8
45. Cc1nc2c(c(=O)n1C)CCN(Cc1ccc(C#CCCO)cc1)CC2
  NPYLR7 agonist = 11; NPYLR7 agonist max-min = 0
46. c1nc(NCCCN2CCOCC2)c2c3c(sc2n1)CCCC3
  NPYLR7 agonist = -5; NPYLR7 agonist max-min = -10
47. O=C1CN(S(=O)(=O)c2cccs2)CC(O)CN1Cc1ccco1 (centres undefined)
  NPYLR7 agonist = 3; NPYLR7 agonist max-min = 6
48. Cc1c(C(=O)N2Cc3cnc(C(C)(C)C)nc3C2)[nH]c2c(F)cccc12
  NPYLR7 agonist = 17; NPYLR7 agonist max-min = 9
49. COc1ccc(CN(CC(C)C)C(=O)c2cc(C)c(C)[nH]c2=O)cc1
  NPYLR7 agonist = 1; NPYLR7 agonist max-min = 1
50. OCC1(Cc2ccccc2)CCCN(c2ncccc2Cl)C1 (centres undefined)
  NPYLR7 agonist = 3; NPYLR7 agonist max-min = 3

51. CC(C)CNC(=O)c1cn(C(C)C)cc(C(=O)N2CCN(c3cccc(C(F)(F)F)c3)CC2)c1=O
  NPYLR7 agonist = 22; NPYLR7 agonist max-min = 26
52. Cc1noc(C)c1N(C)CC(=O)N1CCCCC1C (centres undefined)
  NPYLR7 agonist = 8; NPYLR7 agonist max-min = 5
53. O=C(CN1C(=O)CSC(c2ccc3c(c2)OCO3)c2c(-c3ccccc3)nn(-c3ccccc3Cl)c21)NCc1ccco1 (centres undefined)
  NPYLR7 agonist = 16; NPYLR7 agonist max-min = 19
54. COc1cccc(C(CN2CCN(S(=O)(=O)c3sc(NC(C)=O)nc3C)CC2)OCc2ccc(C)cc2)c1 (centres undefined)
  NPYLR7 agonist = 15; NPYLR7 agonist max-min = 6
55. CC(NC(=O)C1CCN(S(=O)(=O)c2ccc3c(c2)OCCCO3)CC1)c1ccc(F)cc1F (centres undefined)
  NPYLR7 agonist = 8; NPYLR7 agonist max-min = 11
56. CN(C)c1cc(CNC(=O)Cc2ccccc2F)ccn1
  NPYLR7 agonist = 2; NPYLR7 agonist max-min = 1
57. CCc1nc(NCc2ccccc2)c2ccc(Cl)cc2n1
  NPYLR7 agonist = 4; NPYLR7 agonist max-min = 10
58. COCCCn1cc(C(=O)N2CCCC2)c2nn(-c3ccccc3)c(=O)c-2c1
  NPYLR7 agonist = 7; NPYLR7 agonist max-min = 5
59. Cc1cccc(-n2c(-c3ccc(Cl)cc3)cc(C(=O)Nc3ccc(C)c(C)c3)c2C)c1
  NPYLR7 agonist = 21; NPYLR7 agonist max-min = 13
60. CC1(C(=O)NS(=O)(=O)c2cccc(F)c2)CCN1C(=O)Cc1ccc(-c2ccccc2)cc1 (centres undefined)
  NPYLR7 agonist = 1; NPYLR7 agonist max-min = 0

61. CSCCCCNC(=O)N1CC(C)C1c1ccccc1 (centres undefined)
  NPYLR7 agonist = 3; NPYLR7 agonist max-min = 2
62. CCc1cc2c(SCC(=O)c3cc(C)n(-c4nccs4)c3C)ncnc2s1
  NPYLR7 agonist = 4; NPYLR7 agonist max-min = 9
63. O=C(O)P(=O)(O)O
  NPYLR7 agonist = -14&-6&0; NPYLR7 agonist max-min = -18&-13&-7
64. C=CC(C)(O)CN(Cc1cccc(C)c1)CC1CCCO1 (centres undefined)
  NPYLR7 agonist = 26; NPYLR7 agonist max-min = 24

In the list so far, 14 have fluorine:
3. O=C(CC1(C(=O)O)CCCCC1)Nc1ccc(F)c(F)c1F
  NPYLR7 agonist = 9; NPYLR7 agonist max-min = 14
4. O=C(CN(CCCN1CCOCC1)S(=O)(=O)c1ccc(F)cc1)N(Cc1ccccc1)Cc1ccco1
  NPYLR7 agonist = -5; NPYLR7 agonist max-min = -3
13. COc1c(F)ccc(-c2n[nH]c(Cc3ccccc3)n2)c1F
  NPYLR7 agonist = 27; NPYLR7 agonist max-min = 17
14. FC(F)Cn1ccc(Nc2ncc(Br)cn2)n1
  NPYLR7 agonist = 1&4; NPYLR7 agonist max-min = 0&5
19. O=C(CCNc1ncc(C(F)(F)F)cc1Cl)Nc1cn[nH]c1
  NPYLR7 agonist = 8; NPYLR7 agonist max-min = 5
28. O=C(Nc1ccccc1C(F)(F)F)c1cccn(OCc2cccc(Cl)c2)c1=O
  NPYLR7 agonist = 20; NPYLR7 agonist max-min = 20
31. NC(=O)Cn1nc(C2CC2)c2cnn(-c3ccc(F)cc3)c2c1=O
  NPYLR7 agonist = 8; NPYLR7 agonist max-min = 5
39. CN(CC(=O)Nc1ccc(Cl)cc1F)CC1CC(=O)N(C2CCCC2)C1 (centres undefined)
  NPYLR7 agonist = 5; NPYLR7 agonist max-min = -8
43. COc1ccc(C(=O)C=Cc2cc(Br)c(O)c(OC)c2)cc1F
  NPYLR7 agonist = 172*; NPYLR7 agonist max-min = 160*
48. Cc1c(C(=O)N2Cc3cnc(C(C)(C)C)nc3C2)[nH]c2c(F)cccc12
  NPYLR7 agonist = 17; NPYLR7 agonist max-min = 9
51. CC(C)CNC(=O)c1cn(C(C)C)cc(C(=O)N2CCN(c3cccc(C(F)(F)F)c3)CC2)c1=O
  NPYLR7 agonist = 22; NPYLR7 agonist max-min = 26
55. CC(NC(=O)C1CCN(S(=O)(=O)c2ccc3c(c2)OCCCO3)CC1)c1ccc(F)cc1F (centres undefined)
  NPYLR7 agonist = 8; NPYLR7 agonist max-min = 11

56. CN(C)c1cc(CNC(=O)Cc2ccccc2F)ccn1
  NPYLR7 agonist = 2; NPYLR7 agonist max-min = 1
60. CC1(C(=O)NS(=O)(=O)c2cccc(F)c2)CCN1C(=O)Cc1ccc(-c2ccccc2)cc1 (centres undefined)
  NPYLR7 agonist = 1; NPYLR7 agonist max-min = 0

Not all compounds are listed (hit frequency here may not be typical).
